TRPV1 potentiator: human TRPV1 potentiation; 0.02% of 320,000 active; Q8NER1; TRPV1-expressing cells, Fluo-8 calcium influx, capsaicin EC20 potentiation; host cell line not named in the record; control for the full effect not named in the record; potentiation, % at 8.33 µM; active means potentiation above 80%; inconclusive means 30% to 80%; inactive means below 30%; also: 0% is about no effect
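TRPV1-expressing cells were cultured overnight at 35.5C and loaded with Fluo-8 calcium dye for 40 to 90 min at room temperature. After a 10 s baseline, compound was added and calcium influx was read kinetically for 3 min (ex 480/em 520 nm).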
PINK1 modulator: PINK1 expression modulation; 0.2% of 410,000 active; AID 624263; Potency, µM (doses to about 76.6 µM), for inactives: top-dose activation (PINK1 increase), usual class: activators; PINK1 immunofluorescence, high-content cytometry, 24 h; active = well fitted activation curve with a large enough effect; inconclusive = small, poorly fitted or top-dose-only effect; inactive = flat fitted curve, though single readings scatter; cell line not stated here;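 also: potency is read from the fitted curve at half-maximal effect; % of control where 0% means no effect; nearly all actives have a fitted effect of over 65% in size; a mitochondrial uncoupler was the plate control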
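Readout is PINK1 immunofluorescence, quantified alongside mitochondrial, cell and nuclear markers by laser-scanning microplate cytometry. Cells from a stable line were exposed to compound titrations (5 concentrations) for 24 hours, with CCCP controls.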
CtBP-E1A blk: inhibitors of CtBP/E1A interaction | AlphaScreen GST-E1A/His-CtBP binding, 1536-well; active compounds read low; control for the full effect not named in the record | activity change, % (no concentration beside the values) | 0.49% of 340,000 active | AID 651724; in the data active means activity change below about -65%; inconclusive means about -30% to -65%; inactive means above about -30%; also: % is scaled to controls: 0 for no effect and ±100 for the full control effect
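AlphaScreen with 125 nM GST-E1A and 125 nM His-CtBP (5X stocks) in Tris pH 8.0, 300 mM NaCl, BSA, Tween 20, TCEP. Compounds preincubated 2 h at 37 deg C, then glutathione donor/nickel acceptor beads added for 1 h at 37 deg C in dark.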
Sfp PPTase inh: Sfp phosphopantetheinyl transferase inhibition | Q9F4F7 | Potency, µM, for the others: max response, negative = inhibition, usual class: inhibitors | AID 1490 | Biochemical Sfp PPTase activity, qHTS | 3.5% of 310,000 active; active = well fitted inhibition curve with a large enough effect; inconclusive = small, poorly fitted or top-dose-only effect, or another doubt; inactive = no such curve, though single readings can be large or run the other way;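 also: the enzyme is Sfp with the accession as filed and its product quenches rhodamine fluorescence; potency is read from the fitted curve at half-maximal effect; 0% = enzyme reaction without inhibitor and -100% = no enzyme wells; top concentration of the series not given in the record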
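After 15 min at room temperature with compound, 15 nM Sfp received 5 uM rhodamine-CoA plus 12.5 uM BHQ-2-ybbR (50 mM Hepes pH 7.6, 10 mM MgCl2). Rate came from the fluorescence difference over 30 min, ex 525/em 598 nm.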
D2 agonist: activates the human D2 dopamine receptor; activation, % (no concentration beside the values); 0.084% of 360,000 active; AID 624465; DiscoveRx PathHunter D2 beta-arrestin, luminescence, 90 min; 100% = 57 uM dopamine signal; P14416; in the data active = activation above about 40%; inconclusive = about 15% to 40%; inactive = below about 15%; also: compound concentration not given in the record; the text of the record calls up to 30% inactive
Target sequence (P14416 whole entry, looked up): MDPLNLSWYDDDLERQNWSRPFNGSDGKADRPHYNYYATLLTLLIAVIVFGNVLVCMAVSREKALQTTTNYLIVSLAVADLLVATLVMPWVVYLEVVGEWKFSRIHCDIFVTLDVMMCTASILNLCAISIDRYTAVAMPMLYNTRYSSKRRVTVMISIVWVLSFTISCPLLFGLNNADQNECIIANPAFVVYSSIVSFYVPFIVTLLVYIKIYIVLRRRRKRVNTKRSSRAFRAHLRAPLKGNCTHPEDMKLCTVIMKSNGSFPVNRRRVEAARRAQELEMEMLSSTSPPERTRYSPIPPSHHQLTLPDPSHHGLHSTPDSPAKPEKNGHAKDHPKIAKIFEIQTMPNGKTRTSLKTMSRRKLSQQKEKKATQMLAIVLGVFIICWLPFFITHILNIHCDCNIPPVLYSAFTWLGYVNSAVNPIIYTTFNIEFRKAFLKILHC
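Agonist mode: compounds alone added to overnight-plated D2 PathHunter cells for 90 min at 37 C, with 57 uM final dopamine (EC100) defining full response. Beta-arrestin recruitment detected by chemiluminescent reagent, read after 1 h at ambient temperature.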
Six1-Eya2 inh: inhibitors of human Six1/Eya2 interaction. Q15475+O00167. AlphaScreen GST-Six1/His-Eya2 binding, biochemical; active compounds read low; control for the full effect not named in the record. activity change, % (no concentration beside the values). 0.56% of 360,000 active. AID 651725; in the data active = activity change below about -65%; inconclusive = about -30% to -65%; inactive = above about -30%; also: % is scaled to controls: 0 for no effect and ±100 for the full control effect
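GST-Six1 + His-Eya2 (5X stock: 250/500 nM); Tris pH 8.0, 300 mM NaCl, 0.05% BSA, 0.02% Tween 20; GSH donor/Ni acceptor beads; 1 h 37 °C dark; AlphaScreen readout.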
D2 PAM: positive allosteric modulators of human D2 dopamine receptor; DiscoveRx D2 beta-arrestin cells, luminescence, 90 min; 100% = 57 uM dopamine signal; potentiation, % (concentration not given with the values); 0.23% of 360,000 active; active = potentiation of 50% or more; inconclusive = 30% to 50%; inactive = 30% or less;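 also: compound concentration not given in the record; tested on top of an EC20 dose of dopamine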
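PathHunter D2 cells, attached overnight at 37 deg C, received compound in DMSO plus dopamine at EC20 (50 nM final) for 90 min at 37 deg C. Beta-arrestin recruitment was read as luminescence after 1 h with detection reagent at ambient temperature.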
Starred values were filed as active, the others as inactive; ? = inconclusive; / = no result given; ! = not active in a repeat; [ ] = remark or other dose.

SMILES	TRPV1 potentiator	PINK1 modulator	CtBP-E1A blk	Sfp PPTase inh	D2 agonist	Six1-Eya2 inh	D2 PAM
CC1(C(=O)Nc2cccc(Oc3ccccc3)c2)CCN1C1Cc2ccccc2C1 (stereo unspecified)	/	2.0%	5	/	-3.9	3	-3
Cc1ccc(Cn2cc(/C=N/Nc3ccc([N+](=O)[O-])cn3)c3ccccc32)cc1	9	17%	-7	-8%	-3.4	-5	-5
COc1cc(NC(=O)C23CC4CC(C2)CC(n2cnc([N+](=O)[O-])n2)(C4)C3)cc(OC)c1	0	-1.1%	0	-2%	2.8	7	-10
CC(C)(C)C(=O)/C=c1\[nH]c(=O)/c(=C\c2ccccc2F)s1	-9	2.2%	-7	17%	-0.7	-23	-4
O=C(CCS(=O)(=O)c1ccc(Br)cc1)Nc1ccccc1Cl	-5	6.7%	-2	10%	-6.9	2	-11
Cc1ccc(S(=O)(=O)N2CCOCC2)cc1NC(=O)CSc1ccccn1	-2	3.2%	2	-13%	0.0	-4	-3
CCOc1cccc(NC(=O)CSc2nncn2N)c1	23	-1.1%[38.3 µM]	11	9%	-0.3	1	-9
CC(NC(=O)COc1ccccc1F)C1CC2CCC1C2 (stereo unspecified)	-13	1.4%	2	11%	-1.4	3	-8
NCCS	3	0.5%	-25	79µM*!	-2.1	-4	-21
CN(C)/C=C(/C(=O)c1ccc(Cl)cc1)S(C)(=O)=O	-13	-2.0%	-25	17%	-3.0	1	-3
COc1ccc(C(=O)Nc2cc(S(=O)(=O)N3CCCC3)ccc2Cl)cc1	/	-1.2%	-4	/	1.5	-1	-8
O=C(NCCCc1ccccn1)C1CCC(=O)N(Cc2cccc(F)c2)C1 (stereo unspecified)	0	-0.3%	/	24%	-4.2	7	-7
COc1cc(OC)cc(C2=Cc3ccc(OC)cc3C(CC(C)=O)N2c2ccc(C#CCCO)cc2)c1 (stereo unspecified)	/	0.1%	1	/	/	-11	/
CC(=O)Nc1nc2ccc(C(=O)NCCOC(=O)C3CCCCC3)cc2s1	-4	-0.6%	-23	12%	0.3	-8	-1
CCCCNC(=O)C1(C)CCN1C(=O)c1cccc2c1OCCO2 (stereo unspecified)	/	-1.1%	-24	/	6.1	13	-9
CCC(CC)n1c(C)cc(=O)n1C(CC)CC	/	-3.5%	11	/	-3.3	-3	-1
CN(C)c1ccc(C=C2C=Cc3ccccc32)cc1	/	?	-4	/	-1.7	-71*	-4
CC(C)Oc1cccc(C(=O)C2CCCN(Cc3ccc(Oc4ncccn4)cc3)C2)c1 (stereo unspecified)	-7	1.0%	-1	-5%	-1.5	-4	-16
O=C1/C(=C/c2cccs2)Sc2ccccc21	-1	1.5%	23	0%	7.3	-2	22
CCn1c(=S)sc2c(=O)n(CC(=O)Nc3ccccc3C(F)(F)F)c(C)nc21	5	7.4%	/	-27%	-8.4	-5	-4
CCOc1ccc(NC(=O)CN(C)C(=O)c2cccnc2Sc2ccc(Cl)cc2)cc1OCC	0	2.4%	0	/	-6.2	14	-9
COC(=O)[C@H](CC(C)C)NC(=O)c1cc2c(cn1)[nH]c1ccccc12	-3	0.8%	0	45µM*	7.5	-10	1
CC1CC(C)CN(C(=O)COC(=O)c2cc3ccccc3cc2O)C1 (stereo unspecified)	-6	0.3%	2	-10%	-4.1	-16	-4
CCN(CC)c1ccc(NC(=O)COC(=O)CCc2cc(OC)c(OC)c(OC)c2)cc1	/	1.2%	-12	/	-7.5	?	-5
Cc1ccc(S(=O)(=O)N/N=C\c2cn(CC(N)=O)c3ccccc23)cc1C	0	4.2%	-7	7%	-5.7	-7	-19
CCC(C)(C)C1CCC(NC(=O)c2ccc(S(=O)(=O)N3CCOCC3)cc2)CC1 (stereo unspecified)	-4	-0.4%	-2	/	-1.3	8	-6
CSc1ccccc1OCc1cc(C(=O)NCc2ccc(C)s2)no1	-11	-0.5%	3	13%	-0.7	-4	2
COc1ccc(C(=O)NC2CCCCCC2)cc1S(=O)(=O)N1CCCc2ccccc21	1	-0.8%	-4	6%	-1.3	-2	-15
CN(C)c1ccc(-c2nnc(SCC3CCCO3)n2C)cc1 (stereo unspecified)	-14	-1.4%	-2	-14%	0.5	2	-6
O=C(NCCO)c1ccc(Oc2ccc(C(F)(F)F)cc2[N+](=O)[O-])cc1	-17	-0.5%	-8	23%	-2.6	0	1
COc1cc(NC(=O)c2c(F)c(F)c(F)c(F)c2F)c(OC)cc1Cl	-6	-4.4%	15	9%	-0.9	0	-4
O=C(c1cnn2c(C(F)(F)F)cc(-c3ccccc3)nc12)N1CCCCC1c1cccnc1 (stereo unspecified)	-3	0.7%	-3	0%	-2.1	2	-12
CC(=O)O[C@H]1C[C@@]2(C)[C@@H](C[C@@H](O)[C@H]3[C@@]4(C)CC[C@@H](O)[C@@H](C)C4CC[C@@]32C)/C1=C(\CCC=C(C)C)C(=O)O (stereo partly specified)	11	1.3%	4	22%	-1.1	-3	-2
CCc1cc(C(=O)c2ccc(C)cc2)c(NC(=O)CCl)s1	10	-3.0%	2	?	-0.1	-15	-18
COc1ccc(C2=CC(=O)CC(c3ccc(OC)cc3)C2)cc1 (stereo unspecified)	0	0.2%	0	-1%	3.1	-3	0
COc1ccc(NC(=O)CN(C)S(=O)(=O)c2cccc3nsnc23)cc1OC	-3	2.3%	-1	12%	-4.4	-5	2
O=C(Nc1ccc(/C=C/c2nc3ccccc3o2)cc1)c1cccc(C(F)(F)F)c1	11	3.7%	-2	6%	1.9	9	0
COc1cc(CN(C)CC2CCCN(CCc3ccccc3F)C2)cc(Cl)c1OC (stereo unspecified)	0	?	-14	-2%	-1.7	?	-8
CC1CC(C)CN(C(=O)Cn2c(=O)n(CCCCC(=O)NCc3ccco3)c(=O)c3ccccc32)C1 (stereo unspecified)	-4	-1.7%	-3	8%	-1.9	-6	0
CC1Oc2ccccc2N(Cc2ccccc2Cl)C1=O (stereo unspecified)	2	2.7%[38.3 µM]	23	5%	-1.3	21	-4

One compound at a time, from the list above. Values in the order: TRPV1 potentiator | PINK1 modulator | CtBP-E1A blk | Sfp PPTase inh | D2 agonist | Six1-Eya2 inh | D2 PAM
Listed for `CC1(C(=O)Nc2cccc(Oc3ccccc3)c2)CCN1C1Cc2ccccc2C1` (stereo unspecified) → / | 2.0% | 5 | / | -3.9 | 3 | -3
Listed for `NCCS` → 3 | 0.5% | -25 | 79µM*! | -2.1 | -4 | -21
Listed for `COc1ccc(NC(=O)CN(C)S(=O)(=O)c2cccc3nsnc23)cc1OC` → -3 | 2.3% | -1 | 12% | -4.4 | -5 | 2
Listed for `CCOc1ccc(NC(=O)CN(C)C(=O)c2cccnc2Sc2ccc(Cl)cc2)cc1OCC` → 0 | 2.4% | 0 | / | -6.2 | 14 | -9

(further entries)
SMILES	TRPV1 potentiator	PINK1 modulator	CtBP-E1A blk	Sfp PPTase inh	D2 agonist	Six1-Eya2 inh	D2 PAM
Cc1ccc(Cn2nnc3c(=O)[nH]c(C4CCCN(S(=O)(=O)c5ccc(F)cc5)C4)nc32)cc1 (stereo unspecified)	16	4.0%	6	?	-2.3	1	-4
Cc1ccc(/C=N/c2sc(Cc3ccccc3)c(C)c2C(N)=O)o1	-14	11%	7	-13%	1.0	6	5
Cn1nc([N+](=O)[O-])nc1Sc1nnc(-c2ccccc2)o1	-2	-1.9%	10	-5%	9.3	3	2
CCOc1ccc(-c2nnn(CC(=O)NCc3ccc(F)cc3)n2)cc1OCC	-3	4.5%[38.3 µM]	2	-9%	-0.5	0	-9
OC(c1ccc(F)cc1)c1nc(-c2cccc(C(F)(F)F)c2)cs1 (stereo unspecified)	/	9.1%	11	/	1.3	14	-9
CC1CCCCN1C(=O)CSc1nnc(-c2ccccc2O)o1 (stereo unspecified)	-16	2.4%	-9	11%	-0.4	-15	0
N/C(=N\OC(=O)CCCOc1ccc(Cl)cc1Cl)c1ccccn1	15	0.1%	-6	?	1.6	-16	-1
COc1cccc(OC)c1C(=O)NC(=S)Nc1ccc2c(c1)Cc1ccccc1-2	9	0.8%	1	3%	1.5	3	5
C[C@@H]1CN=C2N(CCNC(=O)CCC3CCCCC3)[C@H](Cc3ccc(O)cc3)CN21	-5	0.2%	2	16µM*	-3.2	4	-29
CCC(=O)N(C)CCc1cc2c(c(OC)c1/C=N/NC(=O)[C@H]1C[C@@H]1c1ccccc1)OCO2	2	4.7%	-2	0%	0.2	-2	-7
O=C(Cn1c(C(F)(F)F)nc2ccccc21)c1ccccc1	12	/	9	-2%	1.4	2	-8
O=C1C2C3C=CC(C3)C2C(=O)N1CNc1ccccc1 (stereo unspecified)	-1	-0.6%	17	20%	-0.8	3	1
COc1ccc(Cc2nc(-c3ccccc3)no2)cc1	0	?	60	0%	1.2	50	-6
Cc1cccc(N2CC(C(=O)OCC(=O)Nc3sccc3C(N)=O)CC2=O)c1C (stereo unspecified)	/	-0.5%	0	/	-1.2	-7	-1
CCc1ccc(NC(=O)CN(c2ccc(OC)cc2)S(=O)(=O)c2c(C)nn(C)c2C)cc1	-30	1.3%	4	11%	-1.6	-6	-10
O=C(c1ccc(S(=O)(=O)NCC2CCCO2)cc1)N1CCN(c2ccccc2)CC1 (stereo unspecified)	19	-1.6%	-17	28%	-3.5	5	0
CCCN1C2CCCC1CC(NC(=O)c1cc(OC)cc(OC)c1)C2 (stereo unspecified)	13	1.0%	/	10%	1.6	-3	-5
O=C(OCc1ccc(F)cc1)c1cc(S(=O)(=O)N2CCCCC2)ccc1N1CCOCC1	-4	-2.9%	-2	/	-0.3	-1	5
CC(Oc1ccc2c(-c3ccccc3)cc(=O)oc2c1)C(=O)NCCN1CCOCC1 (stereo unspecified)	9	-0.2%	-5	13%	-4.6	-3	-13
CCOC(=O)Cc1c(C)nc2c(C#N)c(C)nn2c1C	-7	0.6%	0	18%	-1.2	-1	-7
CCOc1ccc2nc(NC(=O)c3cccnc3)sc2c1	-16	1.8%	4	-8%	-7.9	0	-12
CCOc1cc(NC(=O)C2CCCO2)c(OCC)cc1NC(C)=O (stereo unspecified)	/	2.2%	-1	-5%	-0.4	6	2
CC1CC(C)CN(C(=O)C2CCN(S(=O)(=O)c3cccs3)CC2)C1 (stereo unspecified)	8	-1.1%	2	9%	0.4	-1	-3
O=C(CSc1ccc(F)cc1)NCCc1ccc(Cl)cc1	-21	21%	8	9%	-4.2	14	-7
